From PubChem BioAssay
Marburg entry inh = blocks Marburg virus binding to or entry into cells; Marburg virus pseudotyped entry inhibition, cell reporter; control for the full effect not named in the record; about a third of the inactives were read at about 46 µM; Potency, µM (highest dose often 37.8 µM), inactives show top-dose activity change, negative = inhibition, usual class: inhibitors; actives 1.8% (n = 300,000); AID 540276; active = well fitted inhibition curve with a large enough effect; inconclusive = small, poorly fitted or top-dose-only effect, or effect the other way; inactive = flat fitted curve, though single readings scatter; tested in HEK293 cells; about a fifth of its hits are not listed in these tables; note: % is set by controls: 0 for no effect and ±100 for the full control effect; luciferase read-out
RE007 growth inh = less growth of the S. pombe RE007 Vpr strain. S. pombe RE007 Vpr strain, BacTiter-Glo ATP luminescence, 24 h; control for the full effect not named in the record. Potency, µM (top dose mostly 92.2 µM), without a hit: at the top dose activity change, negative = less growth. actives 0.21% (n = 360,000). AID 651644; active = well fitted falling curve with a large enough effect; inconclusive = small, poorly fitted or top-dose-only effect; inactive = no such curve, though single readings can be large or run the other way;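 note: % is set by controls: 0 for no effect and ±100 for the full control effect; nearly all actives have a fitted effect of over 50% in size; the assay follows cell death caused by Vpr and the record does not say whether a fall means rescue or toxicity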
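Fission yeast RE007 carrying one integrated HIV-1 vpr copy, seeded at OD 0.01 in PMG+AL medium with 23 nL pinned compound. Grown 24 h at 30 degrees; viability read by BacTiter-Glo luminescence after 5 min.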
Cruzain inh Det = cruzain (T. cruzi) inhibition with detergent; actives 0.43% (n = 200,000); P25779; Potency, µM, for inactives: max response, negative = inhibition, usual class: inhibitors; AID 1478; purified cruzain, Z-FR-AMC fluorescence, 0.01% Triton; active = well fitted curve in the direction sought with a large enough effect; inconclusive = small, poorly fitted or top-dose-only effect, or another doubt; inactive = no such curve, though single readings can be large; an effect the other way counts as inactive or inconclusive;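 note: plate controls were neutral wells for no effect and buffer without enzyme for full effect; nearly all actives have a fitted effect of over 40% in size; top concentration of the series not given in the record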
Target sequence (P25779 123-467 limits assumed): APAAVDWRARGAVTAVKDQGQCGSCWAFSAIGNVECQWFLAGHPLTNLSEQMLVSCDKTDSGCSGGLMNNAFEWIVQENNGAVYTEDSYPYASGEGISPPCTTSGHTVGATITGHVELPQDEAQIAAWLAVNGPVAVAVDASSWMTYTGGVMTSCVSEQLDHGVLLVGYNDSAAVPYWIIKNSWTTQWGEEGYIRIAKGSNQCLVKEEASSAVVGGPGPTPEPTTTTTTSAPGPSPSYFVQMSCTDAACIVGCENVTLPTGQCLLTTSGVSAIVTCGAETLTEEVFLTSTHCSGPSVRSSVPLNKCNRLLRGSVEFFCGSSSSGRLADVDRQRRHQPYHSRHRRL
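In this qHTS format, compounds are incubated with 1.5 nM cruzain for 15 min at room temperature before 2 uM Z-FR-AMC is added. Release of AMC is followed at 360/450 nm, and progress is taken as the 60 s fluorescence difference.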
Cruzain noTriton = cruzain (T. cruzi) inhibition without detergent | actives 2.3% (n = 200,000) | Potency, µM, inactives show max response, negative = inhibition, hits mostly inhibitors | purified cruzain, Z-FR-AMC fluorescence, no detergent | AID 1476; active = well fitted curve in the direction sought with a large enough effect; inconclusive = small, poorly fitted or top-dose-only effect, or another doubt; inactive = no such curve, though single readings can be large; an effect the other way counts as inactive or inconclusive;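 note: plate controls were enzyme without inhibitor for no effect and buffer without enzyme for full effect; nearly all actives have a fitted effect of over 40% in size; top concentration of the series not given in the record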
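Purified cruzain at 1.5 nM, pre-incubated 15 min with compound at room temperature in 100 mM sodium acetate pH 5.5, 5 mM DTT, 0.00005% Triton X-100. Reaction started with 2 uM Z-FR-AMC; AMC fluorescence increase over 60 s gives rate.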
SARS PLP yeast = inhibitors of SARS-CoV papain-like protease in yeast. S. cerevisiae expressing SARS-CoV PLpro, growth rescue; control for the full effect not named in the record. Potency, µM (top dose mostly 32.9 µM), without a hit: at the highest dose activity, positive = growth rescue. actives 0.19% (n = 330,000). AID 485353; note: 0% is about no effect; nearly all actives have a fitted effect of over 55% in size; growth read by luminescence after 48 h
Lassa entry inh = blocks Lassa virus binding to or entry into cells. Lassa virus pseudotype entry inhibition, cell reporter; control for the full effect not named in the record. actives 1.2% (n = 300,000). Potency, µM (top dose mostly 37.9 µM), for inactives: at the top dose activity change, negative = inhibition, hits mostly inhibitors; active means well fitted inhibition curve with a large enough effect; inconclusive means small, poorly fitted or top-dose-only effect, or effect the other way; inactive means flat fitted curve, though single readings scatter; tested in HEK293 cells; note: % is set by controls: 0 for no effect and ±100 for the full control effect; nearly all actives have a fitted effect of over 50% in size; luciferase read-out
StopGo reporter = FMDV 2A StopGo reporter, luciferase signal; human cells with a luciferase reporter of 2A StopGo recoding; control for the full effect not named in the record; Potency, µM (top dose mostly 57.9 µM), without a hit: at the top dose signal change, negative = less light; actives 1.2% (n = 410,000); active = well fitted falling curve with a large enough effect; inconclusive = small, poorly fitted or top-dose-only effect; inactive = no such curve, though single readings can be large or run the other way; tested in HEK293T cells; note: % is set by controls: 0 for no effect and ±100 for the full control effect; nearly all actives have a fitted effect of over 45% in size; luciferase light after 4 h
NS1 function inh = inhibitors of influenza NS1 protein function | actives 0.4% (n = 270,000) | S. cerevisiae slowed by influenza A NS1, growth recovery by OD600 | Potency, µM (titrated, usually from 46.1 µM), inactives show top-dose activity, positive = more growth; note: actives are rising curves; nearly all actives have a fitted effect of over 50% in size
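In this qHTS, NS1 from influenza A is expressed in budding yeast, where it slows growth. Cells are switched from glucose to 2% galactose medium (pH 6.0, -URA), treated with compound, and growth recovery is read at OD600.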
The depositor's hits bear a star; ? = inconclusive; . = no result given; [ ] = another dose, or the depositor's remark. Unless noted, calls come from the whole dose curve; as a rule, active means well fitted rising curve with a large enough effect; inconclusive means small, poorly fitted or top-dose-only effect; inactive means no such curve, though single readings can be large or run the other way. Potency is the fitted concentration of half-maximal effect.

SMILES | Marburg entry inh | RE007 growth inh | Cruzain inh Det | Cruzain noTriton | SARS PLP yeast | Lassa entry inh | StopGo reporter | NS1 function inh
CN(CC(=O)Nc1c(Cl)cccc1Cl)C(=O)C1CSC2(C)CCC(=O)N12 (stereo not given) | -11% | -21% | . | . | 5% | 3% | -17% | .
COc1ccc(NC(=S)NCc2ccccn2)cc1OC | ? | 0% | . | . | -1% | 0%[46.1 µM] | 36%[activator] | 18%
C#CC[N+](CC)(CC)CC#Cc1cccc(Cl)c1 | -2% | -6% | 2.2% | -12% | -2% | -6% | 0% | 18%
COc1ccccc1/C=C(/NC(=O)c1ccccc1)C(=O)NCCN1CCOCC1 | 0%[46.1 µM] | -3% | . | . | 1% | 9%[46.1 µM] | -16% | 9%
CC(=O)N1C(C(=O)O)CSC1c1ccc(C)cc1 (stereo not given) | -1% | -9% | 4.3% | -1% | 3% | . | -1% | -6%
CCc1sc(C(=O)Nc2ccc(NC(C)=O)cc2)cc1C | 3% | -10% | -1.1% | ? | -10% | -5% | 15% | -1%
Cc1c(C(=O)N2CCN(C)CC2)oc2ccc(S(=O)(=O)N3CCOCC3)cc12 | 0% | -13% | 4.7% | -16% | 7% | -11% | -26% | -14%
CC(=Nc1cc(C(=O)c2ccccc2)ccc1N)C1=C(O)CC(C)(C)CC1=O | ? | 1% | . | . | -4% | ? | 17% | .
O=C(CCCCCNc1nc(=S)[nH]c2ccccc12)NCCc1ccccc1 | -24% | -2% | -2.6% | -8% | 2% | ? | -12% | 8%
O=C(CSc1nc(-c2cccs2)nc2cc(=O)[nH]n12)Nc1ccccc1Cl | . | . | -4.3% | 14% | . | 0%[46.1 µM] | ? | .
COc1cccc(/C=N/NC(=O)CC2C(=O)NN=C2C)c1O (stereo not given) | 1% | 15% | -0.5% | -26% | 6% | 11% | 0% | 10%
O=C(NNC1=Nc2cc([N+](=O)[O-])ccc2OC1)c1ccccc1Cl | . | 1% | . | . | 1% | . | ? | 2%
CCOC(=O)N1CCC(NC(=O)C2CCN(C(=O)N3CC(C)Oc4ccccc43)CC2)CC1 (stereo not given) | 2% | 6% | 1.7% | ? | 1% | -17% | -2% | -13%
CC(=NCc1ccco1)c1c(O)n(-c2ccc(Cl)cc2)c(=O)[nH]c1=O | 19%[46.1 µM] | 0% | . | . | 0% | -19% | -7% | -7%
O=C(Cc1c(F)cccc1Cl)Nc1nccs1 | 25% | 38% | . | . | 5% | 26% | 1% | 21%
O=C(CSc1nc2c(c(=O)[nH]1)CCCC2)Nc1ccc(Br)cc1 | 21%[46.1 µM] | . | -1.3% | 11% | . | 12%[46.1 µM] | -20% | .
O=C(Nc1nnc(-c2ccccc2Cl)o1)c1cc2cc([N+](=O)[O-])ccc2s1 | 13% | . | 1.7% | ? | 1% | 4% | . | 9%
N#CC1=C(N)Oc2cc(N)ccc2C1c1cccc(F)c1 (stereo not given) | ? | -13% | . | . | -5% | -21%[46.1 µM] | -17% | 3%
Cc1cc(C(c2ccc(C)o2)c2ccc(C)o2)c(O)c([N+](=O)[O-])c1 | -18% | -25% | -12% | ? | -27% | 5% | ? | ?
COC(=O)c1c(C)[nH]c(C(=O)OCc2ccc(F)cc2)c1C | -9% | -11% | -6.9% | -15% | -2% | -30% | 24% | -1%
O=C(NCCCN1CCCC1=O)c1cccc(N2CCCC2=O)c1 | 5%[46.1 µM] | -5% | 10% | 6% | -1% | -7% | 14% | 2%
COc1cccc(NC(=O)C(c2ccccc2)N2CCCC2)c1 (stereo not given) | -22% | 6% | . | . | 3% | -3% | -4% | -2%
Cc1cc(NC(=O)Nc2nc3c(s2)CCCCCC3)ccc1Br | . | . | -1.1% | 12% | . | 5%[46.1 µM] | -2% | .
Cc1ccc(Cn2c(=O)n(Cc3ccco3)c(=O)c3sc4ccccc4c32)cc1 | 1%[46.1 µM] | . | -2.1% | 3% | . | -2%[46.1 µM] | -2% | .
COc1ccccc1NC(=O)C(=O)NNS(=O)(=O)c1ccc2ccccc2c1 | . | 0% | . | . | 0% | . | 22% | ?
O=C(NCc1ccccc1)C(c1ccc(F)cc1)N(C(=O)c1csnn1)C1CC1 (stereo not given) | 5%[46.1 µM] | 17% | . | . | 2% | 19%[46.1 µM] | 6% | 6%
Cc1cccc2c1CC(C)(C)NC2=C(C#N)C#N | ? | ? | -7.0% | -2% | 0% | -25% | -18% | -7%
COc1ccccc1N=C(C)C1=C(O)CSC1=O | ? | -6% | -2.6% | 0% | -13% | 7% | -4% | 1%
CCOc1ccccc1NC(=O)COC(=O)/C=C/c1cccs1 | -7%[46.1 µM] | 4% | . | . | 0% | 2%[46.1 µM] | -2% | .
COc1cccc(N2CCN(CC(=O)Nc3nnc(-c4ccccc4)s3)CC2)c1 | ? | -28% | -2.2% | 25µM* | -11% | 0.79µM* | 16µM* | 0%
COc1ccc(N(CC(O)Cn2nnc3ccccc32)S(=O)(=O)c2ccc(C)cc2)cc1 (stereo not given) | ? | -7% | -1.3% | 10% | -1% | -42% | . | -3%
Cc1ccc(-n2c(=O)c3ccccc3n(CC(=O)Nc3cccc(C(F)(F)F)c3)c2=O)cc1 | -11%[46.1 µM] | . | -7.8% | -4% | . | -30%[46.1 µM] | -14% | .
N#C/C(C(=O)N1CCOCC1)=C1/SC(Cc2ccccc2Cl)C(=O)N1c1ccccc1 (stereo not given) | 4% | 3% | -5.4% | ? | ? | 6% | -23% | -1%
COCCN1C(=O)C(=O)/C(=C(/O)c2ccc(C)cc2)C1c1ccccn1 (stereo not given) | 4%[46.1 µM] | 2% | . | . | 0% | ? | 9% | 2%
CC(C)(C)OC(=O)CNC(=O)c1[nH]cnc1C(=O)N[C@@H](Cc1ccccc1)C(=O)OCc1ccccc1 | . | -18% | . | . | 3% | . | -11% | 14%
O=C(Nc1ccc(Cl)cc1C(=O)N1CCCCC1)c1ccco1 | 18%[46.1 µM] | -14% | . | . | 1% | . | -7% | 8%
N/C(=N\OC(=O)c1csnn1)c1ccc(C(F)(F)F)cc1 | 0%[14.2 µM] | 8% | . | . | -3% | ? | 24% | 0%
O=C(c1cc2ccccc2s1)N1CCOCC1 | ? | -4% | . | . | -2% | 2%[46.1 µM] | 5% | -7%
COCC(C)NC(=O)C1=CC(c2ccc3c(c2)OCO3)=NS(=O)(=O)N1C (stereo not given) | 5%[46.1 µM] | . | -8.5% | -6% | . | -11%[46.1 µM] | 14% | .
O=C(C1CCCN(c2ncnc3c2nc2n3CCCCC2)C1)N1CCCCC1 (stereo not given) | . | -2% | . | . | -2% | -25%[46.1 µM] | -8% | -7%
COc1ccc2ccc(OCC(=O)NCC3CCCO3)cc2c1 (stereo not given) | -3% | -3% | . | . | 4% | -15% | -21% | .
COc1cccc(CC(NC(C)=O)C(=O)NC2CCN(c3nnnn3-c3ccccc3)CC2)c1 (stereo not given) | 15% | 8% | 1.5% | 5% | -2% | 2% | -6% | 15%
Cc1cc2nsnc2c(S(=O)(=O)NCC(=O)O)c1C | 0% | 2% | -2.0% | -6% | 1% | 1% | . | -3%
CCCCCC[n+]1c(-c2ccc(Cl)cc2Cl)csc1Nc1ccccc1 | -23% | -10% | -1.7% | -17% | -34% | -2% | ? | -1%
CCCc1cc(=O)[nH]c(SCC(=O)NC(=O)c2ccccc2)n1 | 19% | -7% | 3.7% | -10% | 8% | 3% | 9% | -9%
CN1CCc2c(sc(/N=C/c3c[nH]c4ccccc34)c2C#N)C1 | ? | -5% | . | . | 2% | 25% | 61%[activator] | -2%
COc1cccc(-c2nnc3sc(-c4ccco4)nn23)c1 | ? | -15% | -1.1% | -7% | -5% | ? | 58%[activator] | ?
CC(=O)CCc1oc2ccc(C)cc2c1-c1ccc(C)o1 | 7%[46.1 µM] | -23% | . | . | -2% | -16% | -9% | -6%
CC(=O)Nc1ccc(NC(=O)c2nc(SCc3ccccc3C)ncc2Cl)cc1 | 24%[46.1 µM] | . | -0.4% | ? | . | 1%[46.1 µM] | 0% | .
CCOc1ccc(OCC)c(NC(=O)C2CCCN2S(=O)(=O)c2cccc3cccnc23)c1 (stereo not given) | 2% | -4% | 0.4% | ? | 4% | . | -21% | -1%
CCN(CC)c1ccc(/C=N/NC(=O)c2ccc(Br)o2)cc1 | ? | -14% | -9.9% | -19% | -39% | ? | 15% | -15%
COCCN(C(=O)c1csnn1)C(C(=O)NC1CCCCC1)c1ccc(C)cc1 (stereo not given) | 1%[46.1 µM] | 5% | . | . | -1% | -13%[46.1 µM] | 2% | 8%
CCOc1ccccc1-n1nnnc1SCC(=O)Nc1cc(C)on1 | -2% | -2% | 3.1% | 1% | 4% | -22% | -26% | -9%
C=CCn1c(SCc2ccc(C(=O)Nc3nccs3)cc2)nnc1-c1ccc(C)c(Cl)c1 | ? | . | -3.4% | ? | 0% | 11µM* | 28µM* | -4%
CC(NC(=O)CCNC(=O)c1ccc(C(C)(C)C)cc1)c1ccccc1 (stereo not given) | -1% | -23% | . | . | 2% | -1% | -18% | .
C/C(=N\NC(=O)NC1CCCCC1)c1ccc(OC(F)F)cc1OC(F)F | ? | 2% | . | . | -1% | ? | -19% | .
CC1CCc2c(sc3ncnc(NCc4cccnc4)c23)C1 (stereo not given) | -1% | -11% | . | . | -1% | -3% | -5% | .
CCO[C@H]1OC(C(=O)Nc2ccccc2)=C[C@@H](C2CC2)[C@@H]1CCCO | . | 15% | . | . | -2% | . | -22% | 0%
O=C(/C=C/c1ccccc1)Nc1cccc(C(=O)O)c1 | . | -9% | . | . | -1% | . | 10µM* | 6%
CCOC(=O)C1(Cc2cccc(OC)c2)CCN(CC=C(C)C)CC1 | . | -2% | . | . | 1% | . | -27% | -7%
